SARS PLP yeast: qHTS of Yeast-based Assay for SARS-CoV PLP | 330,000 compounds, 0.19% hits | Potency, µM (series often up to 32.9 µM), inactives show top-dose activity, positive = growth rescue | S. cerevisiae expressing SARS-CoV PLpro, growth rescue; control for the full effect not named in the record | AID 485353, 2010; active means well fitted rising curve with a large enough effect; inconclusive means small, poorly fitted or top-dose-only effect; inactive means no such curve, though single readings can be large or run the other way; further: 0% is about no effect; nearly all actives have a fitted effect of over 55% in size; growth read by luminescence after 48 h
RE007 growth inh: qHTS Assay for Inhibitors of the HIV-1 protein Vpr. S. pombe RE007 Vpr strain, BacTiter-Glo ATP luminescence, 24 h; control for the full effect not named in the record. Potency, µM (titrated, usually from 92.2 µM), for inactives: at the highest dose activity change, negative = less growth. 360,000 compounds, 0.21% hits. AID 651644, 2012; active = well fitted falling curve with a large enough effect; inconclusive = small, poorly fitted or top-dose-only effect; inactive = no such curve, though single readings can be large or run the other way;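 further: on the % scale 0 is the no-effect control and ±100 the full control effect; nearly all actives have a fitted effect of over 50% in size; the assay follows cell death caused by Vpr and the record does not say whether a fall means rescue or toxicity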
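Fission yeast strain RE007, carrying one chromosomally integrated HIV-1 vpr copy, was seeded at OD 0.01 in PMG+AL medium with 23 nL pinned compound. After 24 h at 30 °C and 99% humidity, viability was read by BacTiter-Glo luminescence.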
Cruzain inh noDet: qHTS Assay for Promiscuous and Specific Inhibitors of Cruzain (without detergent). Potency, µM, inactives show max response, negative = inhibition, most hits filed as inhibitors. AID 1476, 2009. Cruzipain (Trypanosoma cruzi), P25779. 200,000 compounds, 2.3% hits. purified cruzain, Z-FR-AMC fluorescence, no detergent;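 further: plate controls were enzyme without inhibitor for no effect and buffer without enzyme for full effect; nearly all actives have a fitted effect of over 40% in size; top concentration of the series not given in the record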
Target sequence (P25779 123-467 limits assumed): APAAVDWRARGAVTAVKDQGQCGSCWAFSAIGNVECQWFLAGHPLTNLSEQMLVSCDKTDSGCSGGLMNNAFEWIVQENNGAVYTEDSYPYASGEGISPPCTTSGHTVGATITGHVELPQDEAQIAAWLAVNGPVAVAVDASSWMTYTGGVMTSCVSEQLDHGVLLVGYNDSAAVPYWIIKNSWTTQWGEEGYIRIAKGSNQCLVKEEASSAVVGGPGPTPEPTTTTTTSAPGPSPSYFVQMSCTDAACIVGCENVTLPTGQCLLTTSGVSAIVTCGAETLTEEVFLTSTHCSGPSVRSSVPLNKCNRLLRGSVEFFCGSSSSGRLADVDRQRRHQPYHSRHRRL
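Purified cruzain at 1.5 nM, pre-incubated 15 min with compound at room temperature in 100 mM sodium acetate pH 5.5, 5 mM DTT, 0.00005% Triton X-100. Reaction started with 2 uM Z-FR-AMC; AMC fluorescence increase over 60 s gives rate.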
MARV entry inh: qHTS for inhibitors of binding or entry into cells for Marburg Virus; Marburg virus pseudotyped entry inhibition, cell reporter; control for the full effect not named in the record; about a third of the inactives were read at about 46 µM; Potency, µM (series often up to 37.8 µM), without a hit: top-dose activity change, negative = inhibition, most hits filed as inhibitors; 300,000 compounds, 1.8% hits; active = well fitted inhibition curve with a large enough effect; inconclusive = small, poorly fitted or top-dose-only effect, or effect the other way; inactive = flat fitted curve, though single readings scatter; tested in HEK293 cells; about a fifth of its hits are not listed in these tables; further: on the % scale 0 is the no-effect control and ±100 the full control effect; luciferase read-out
Cruzain inh Det: qHTS Assay for Promiscuous and Specific Inhibitors of Cruzain (with detergent) | Cruzipain (Trypanosoma cruzi), P25779 | purified cruzain, Z-FR-AMC fluorescence, 0.01% Triton | Potency, µM, for the others: max response, negative = inhibition, most hits filed as inhibitors | 200,000 compounds, 0.43% hits;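 further: plate controls were neutral wells for no effect and buffer without enzyme for full effect; nearly all actives have a fitted effect of over 40% in size; top concentration of the series not given in the record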
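Compounds were screened in titration against cruzain (1.5 nM) with 0.01% Triton X-100 to counter colloidal aggregation. Activity was the AMC fluorescence increase over 60 s after adding 2 uM Z-FR-AMC at pH 5.5.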
LASV entry inh: qHTS for Inhibitors of binding or entry into cells for Lassa Virus | Lassa virus pseudotype entry inhibition, cell reporter; control for the full effect not named in the record | Potency, µM (top dose mostly 37.9 µM), inactives show at the highest dose activity change, negative = inhibition, hits mostly inhibitors | 300,000 compounds, 1.2% hits | AID 540256, 2011; active means well fitted inhibition curve with a large enough effect; inconclusive means small, poorly fitted or top-dose-only effect, or effect the other way; inactive means flat fitted curve, though single readings scatter; tested in HEK293 cells; further: on the % scale 0 is the no-effect control and ±100 the full control effect; nearly all actives have a fitted effect of over 50% in size; luciferase read-out
2A StopGo: High Throughput Screening for Foot and Mouth Disease Virus Antivirals; human cells with a luciferase reporter of 2A StopGo recoding; control for the full effect not named in the record; Potency, µM (top dose mostly 57.9 µM), for the others: top-dose signal change, negative = less light; 410,000 compounds, 1.2% hits; active = well fitted falling curve with a large enough effect; inconclusive = small, poorly fitted or top-dose-only effect; inactive = no such curve, though single readings can be large or run the other way; tested in HEK293T cells; further: on the % scale 0 is the no-effect control and ±100 the full control effect; nearly all actives have a fitted effect of over 45% in size; luciferase light after 4 h
NS1 function inh: qHTS Assay for Inhibitors of Influenza NS1 Protein Function; S. cerevisiae slowed by influenza A NS1, growth recovery by OD600; Potency, µM (top dose mostly 46.1 µM), without a hit: at the top dose activity, positive = more growth; 270,000 compounds, 0.4% hits; AID 2326, 2010; active means well fitted rising curve with a large enough effect; inconclusive means small, poorly fitted or top-dose-only effect; inactive means no such curve, though single readings can be large or run the other way; further: nearly all actives have a fitted effect of over 50% in size
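In this qHTS, NS1 from influenza A is expressed in budding yeast, where it slows growth. Cells are switched from glucose to 2% galactose medium (pH 6.0, -URA), treated with compound, and growth recovery is read at OD600.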
Starred values were filed as active, the others as inactive; & = joins results of further samples; [ ] = remark or other dose. Unless noted, the call rests on the fitted dose curve; in most records, active means well fitted curve in the direction sought with a large enough effect; inconclusive means small, poorly fitted or top-dose-only effect, or another doubt; inactive means no such curve, though single readings can be large; an effect the other way counts as inactive or inconclusive. Potency means the concentration at half of the fitted maximal effect. Random draw from the library; any-hit rate near 4.7%.

For CC1(C)SC(=S)N(NC(=O)Nc2ccccc2)C1N(O)C(=O)Nc1ccccc1 (centres undefined) the results were SARS PLP yeast -4%, RE007 growth inh 7%, Cruzain inh noDet -5%, MARV entry inh inconclusive, Cruzain inh Det -9.3%, LASV entry inh 17%, 2A StopGo -18% and NS1 function inh 4%.
Screening O=C1NCC(c2ccccc2)C1C(=O)N/N=C\c1ccc(-c2ccc(Cl)c(Cl)c2)o1 (centres undefined) returned SARS PLP yeast -20%, RE007 growth inh -6%, Cruzain inh noDet 1%, MARV entry inh -17%, Cruzain inh Det -7.9%, LASV entry inh inconclusive, 2A StopGo -27% and NS1 function inh 28%.
For CCc1cccc(NC(=O)Cc2nc(-c3ccc(OC)cc3)no2)c1 the results were Cruzain inh noDet 16%, Cruzain inh Det -3.9%, LASV entry inh -8%[46.1 µM] and 2A StopGo -12%.
Cc1onc(-c2ccccc2)c1C(=O)OCC(=O)N1CCN(c2ccccc2)CC1 was read as SARS PLP yeast 0%, RE007 growth inh 6%, MARV entry inh -26%[46.1 µM], LASV entry inh inconclusive and 2A StopGo -27%.
Nc1nccc(/C=C/c2ccc(Cl)cc2)n1 was read as SARS PLP yeast -2%, RE007 growth inh -26%, MARV entry inh inconclusive, LASV entry inh 2%, 2A StopGo 21% and NS1 function inh -2%.
For NC(=O)c1ccc(NC(=O)c2cnc3ccccc3n2)cc1 the results were SARS PLP yeast 0%, RE007 growth inh 3%, 2A StopGo 75%[activator] and NS1 function inh -3%.
Screening Cc1cccc(-n2c(=O)c3ccccc3n(Cc3ccc(F)cc3)c2=O)c1 returned Cruzain inh noDet -6%, MARV entry inh 3%[46.1 µM], Cruzain inh Det -5.6%, LASV entry inh -2%[46.1 µM] and 2A StopGo -14%.
For Cc1cc(Nc2c(C)n(C)n(-c3ccccc3)c2=O)n2c(nc3cc(F)c(F)cc32)c1C#N the results were SARS PLP yeast -1%, RE007 growth inh -5%, 2A StopGo -9% and NS1 function inh -2%.
CN(Cc1ccncn1)C(=O)CC1C(=O)NCCN1Cc1cccc(Oc2ccccc2)c1 (centres undefined) was read as SARS PLP yeast -1%, RE007 growth inh 8%, MARV entry inh -6%[46.1 µM], LASV entry inh -18%[46.1 µM], 2A StopGo -1% and NS1 function inh 3%.
For CC1CCCN(c2csc3ccccc3c2=O)C1 (centres undefined) the results were Cruzain inh noDet 4%, Cruzain inh Det -5.5%, LASV entry inh 18%[46.1 µM] and 2A StopGo -13%.
For COc1ccc(NC(=S)NC(NC(=O)c2cccc(C)c2)C(Cl)(Cl)Cl)c([N+](=O)[O-])c1 (centres undefined) the results were SARS PLP yeast 0%, RE007 growth inh 7%, Cruzain inh noDet inconclusive, MARV entry inh inconclusive, Cruzain inh Det -11%, LASV entry inh inconclusive, 2A StopGo -3% and NS1 function inh 2%.
c1ccc(C2OCCN3CCCCC23)cc1 (centres undefined) was read as SARS PLP yeast -5%, RE007 growth inh -28%, Cruzain inh noDet 6%, MARV entry inh 5%, Cruzain inh Det 1.7%, LASV entry inh -1%, 2A StopGo 8% and NS1 function inh 0%.
CC(C)CNC(CC(=O)Nc1cccc([N+](=O)[O-])c1)C(=O)O (centres undefined) was read as SARS PLP yeast -23%, RE007 growth inh -3%, Cruzain inh noDet 5%, MARV entry inh inconclusive, Cruzain inh Det -0.4%, LASV entry inh 8%, 2A StopGo -11% and NS1 function inh 18%.
Screening O=C(CCl)Nc1cccn2ncnc12 returned SARS PLP yeast inconclusive, RE007 growth inh -3%, Cruzain inh noDet -6%, MARV entry inh inconclusive, Cruzain inh Det 3.5%, LASV entry inh inconclusive, 2A StopGo -9% and NS1 function inh 7%.
C=CCNC(=O)C1CCN(c2ccc(S(=O)(=O)N3CCOCC3)cc2[N+](=O)[O-])CC1 was read as SARS PLP yeast 0%, RE007 growth inh -13%, 2A StopGo 26% and NS1 function inh -1%.
Cn1c(C(=O)NC2CCCCCC2)cc2c(=O)n(C)c3ccccc3c21 was read as SARS PLP yeast -3%, RE007 growth inh -5%, Cruzain inh noDet inconclusive, Cruzain inh Det -11%, 2A StopGo -20% and NS1 function inh -41%.
For COc1cccc(-n2nc(-c3ccnn3-c3ccc(F)cc3)c(=O)n(C)c2=O)c1 the results were SARS PLP yeast 18%, RE007 growth inh -5%, Cruzain inh noDet 1%, MARV entry inh -10%[46.1 µM], Cruzain inh Det -5.2%, LASV entry inh -3%, 2A StopGo 0% and NS1 function inh 0%.
Screening CC(=O)c1ccc(S(=O)(=O)N2CCN(CC(=O)NC(=O)NC3CCCCC3)CC2)cc1 returned SARS PLP yeast 5%, RE007 growth inh 20%, MARV entry inh 2%, LASV entry inh inconclusive and 2A StopGo -22%.
Screening CC(C)NC(=O)COc1coc(CN2CCN(c3ccccc3)CC2)cc1=O returned SARS PLP yeast -8%, RE007 growth inh 6%, 2A StopGo -17% and NS1 function inh -1%.
Screening COc1ccc(NC(=O)c2ccccc2NC(=O)NC2CCCCC2)cc1 returned SARS PLP yeast 0%, RE007 growth inh -1%, Cruzain inh noDet 0%, MARV entry inh 30%, Cruzain inh Det -1.7%, LASV entry inh 1%, 2A StopGo 11% and NS1 function inh 4%.
Screening CC(=O)n1cc(C2C(=O)CCCC2=O)c2ccccc21 returned SARS PLP yeast -4%, RE007 growth inh 22%, Cruzain inh noDet -1%, MARV entry inh 18%[46.1 µM], Cruzain inh Det 2.3%, LASV entry inh -5%, 2A StopGo -5% and NS1 function inh 6%.
For CO/N=C(\c1nonc1N)N1CCN(c2ccc(Cl)cc2[N+](=O)[O-])CC1 the results were SARS PLP yeast -4%, RE007 growth inh -13%, Cruzain inh noDet 6%, MARV entry inh inconclusive, Cruzain inh Det -0.3%, LASV entry inh inconclusive, 2A StopGo 35µM* and NS1 function inh -40%.
`COC(=O)c1ccc(-c2ccc(/C=N/N3C(=O)C4C5C=CC(C6CC56)C4C3=O)o2)cc1` (centres undefined) gave SARS PLP yeast -10%, RE007 growth inh -11%, Cruzain inh noDet inconclusive, MARV entry inh -7%, Cruzain inh Det -1.5%, LASV entry inh inconclusive, 2A StopGo -6% and NS1 function inh -30%.
`CC(Oc1ccc(Br)cc1)C(=O)Nc1nnc(C2CC2)s1` (centres undefined) gave SARS PLP yeast -7%, RE007 growth inh 2%, MARV entry inh -5%, LASV entry inh -6% and 2A StopGo -7%.

Entries listed so far that contain a furan ring, fused or not (2):
Screening O=C1NCC(c2ccccc2)C1C(=O)N/N=C\c1ccc(-c2ccc(Cl)c(Cl)c2)o1 (centres undefined) returned SARS PLP yeast -20%, RE007 growth inh -6%, Cruzain inh noDet 1%, MARV entry inh -17%, Cruzain inh Det -7.9%, LASV entry inh inconclusive, 2A StopGo -27% and NS1 function inh 28%.
`COC(=O)c1ccc(-c2ccc(/C=N/N3C(=O)C4C5C=CC(C6CC56)C4C3=O)o2)cc1` (centres undefined) gave SARS PLP yeast -10%, RE007 growth inh -11%, Cruzain inh noDet inconclusive, MARV entry inh -7%, Cruzain inh Det -1.5%, LASV entry inh inconclusive, 2A StopGo -6% and NS1 function inh -30%.

Carrying on.
`Cc1ccc(CNC(=O)CN2CCN(Cc3ccc(Cl)cc3)C2=O)cc1` gave SARS PLP yeast 2%, RE007 growth inh 1%, Cruzain inh noDet 3%, MARV entry inh -2%, Cruzain inh Det 5.6%, LASV entry inh 0%, 2A StopGo 0% and NS1 function inh -2%.
`Cc1ccccc1Cn1nnc(-c2cccc(C(=O)O)c2)n1` gave SARS PLP yeast -6%, RE007 growth inh -23%, Cruzain inh noDet -3%, MARV entry inh 5.8µM*, Cruzain inh Det 4.1%, LASV entry inh 13µM*, 2A StopGo -51% and NS1 function inh -33%.
`C=CCSc1nnc(-c2c[nH]c3ccccc23)n1CC` gave SARS PLP yeast -10%, RE007 growth inh 13%, Cruzain inh noDet 6%, MARV entry inh 0%, Cruzain inh Det -1.0%, 2A StopGo -3% and NS1 function inh -13%.
O=C(Nc1c(F)cc(F)cc1Br)c1cccnc1 was read as SARS PLP yeast 3%, RE007 growth inh 3%, Cruzain inh noDet 4%, MARV entry inh 3%, Cruzain inh Det 5.5%, LASV entry inh -19%, 2A StopGo 2% and NS1 function inh 2%.
`O=c1c2ccccc2nc2sc3ccccc3n12` gave SARS PLP yeast -32%, RE007 growth inh -18%, Cruzain inh noDet -15%, MARV entry inh inconclusive, Cruzain inh Det -3.3%, LASV entry inh 16%, 2A StopGo 8% and NS1 function inh -13%&-35%.
CC(C)CC(NP(=O)(O)O[C@@H]1O[C@@H](C)[C@H](O)[C@@H](O)[C@H]1O)C(=O)NC(Cc1c[nH]c2ccccc12)C(=O)O (some centres undefined) was read as Cruzain inh noDet -5%, MARV entry inh inconclusive, Cruzain inh Det -7.0%, LASV entry inh -13% and NS1 function inh 0%.
Screening CN1CCN(C(=O)NC2CCCN2S(=O)(=O)c2ccc(Cl)cc2)CC1 (centres undefined) returned SARS PLP yeast 8%, RE007 growth inh 1%, Cruzain inh noDet -8%, MARV entry inh 20%, Cruzain inh Det 5.8%, LASV entry inh 0%, 2A StopGo -7% and NS1 function inh -4%.
For CCOc1ccccc1NC(=O)Cn1c(=O)n(C(C)C)c(=O)c2oc3ccccc3c21 the results were Cruzain inh noDet 19%, Cruzain inh Det -0.4%, LASV entry inh 11%[46.1 µM] and 2A StopGo -9%.
Screening COc1ccc(CNC(=O)Cc2coc3ccc(C)cc23)cc1 returned Cruzain inh noDet -13%, MARV entry inh 2%[46.1 µM], Cruzain inh Det -3.2%, LASV entry inh 7%[46.1 µM] and 2A StopGo -4%.
For CC1CCN(S(=O)(=O)c2ccc(C(=O)NC3CCS(=O)(=O)C3)cc2)CC1 (centres undefined) the results were SARS PLP yeast 1%, RE007 growth inh 5%, MARV entry inh -18%[46.1 µM], LASV entry inh -9% and 2A StopGo -13%.
